# Calb biofilm kill: mixture kills Candida albicans biofilm cells; C. albicans biofilm persisters + clotrimazole, fluorescence viability; primary screen in compound mixtures of four per well; inhibition, % at 7.6 µM; actives 0.02% (n = 120,000);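 active = inhibition above 30.3% in the primary screen of four-compound pools, then above 30% when the compound was retested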;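 note: compounds exposed to preformed 24 h biofilms for 48 h; the number belongs to the whole pool; some results filed as inactive read as strong as hits; inactives centre near 12; 0% = biofilm with clotrimazole alone and 100% = kill control; retested singly at about 60 µM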
#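 Probe or stimulus – Clotrimazole 50 µg/mL co-treatment · System – C. albicans biofilms · Schedule – 24 h biofilm formation, then 48 h compound exposure, 37 °C · Evaluation – percent inhibition of biofilm viability · Technique – 2-h Alamar Blue fluorescence, 535/590 nm excitation/emission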
# * = called active by the depositor. Only part of the results is shown; rates above refer to the full screens.
SMILES,Calb biofilm kill
Cc1ccc(NC(=O)c2cc(-c3ccco3)nc3ccccc23)cc1S(=O)(=O)N1CCOCC1,5.5
S=C(NCc1ccco1)Nc1cccc(Cl)c1Cl,20.2
CC1=C/C(=N\NC(=S)NCc2ccccc2)CC1,8.3
Cn1c(CN2CCN(C(=O)c3ccccc3Cl)CC2)nc2cc([N+](=O)[O-])ccc21,8.9
CN(c1ccccc1C(=O)NC1CC2CCC1C2)S(=O)(=O)c1ccccc1 (centres undefined),25.8
COc1cccc(OC)c1C(=O)Nc1cccc(-c2nc3ccccc3[nH]2)c1,12.7
CC(C)(C)NC(=O)CN(Cc1ccc(F)cc1)C(=O)Cn1nnc(-c2ccc(F)cc2)n1,20.6
CC(C)CNS(=O)(=O)c1ccc(CCC(=O)N2CCN(c3ccccc3)CC2)cc1,8.7
COc1ccc(NS(=O)(=O)c2cc(NC(=O)c3nn(C)c(=O)c4ccccc34)ccc2OC)cc1,15.5
Cc1nnc(SCC(=O)NC2CCCc3ccccc32)n1-c1ccccc1 (centres undefined),20.3
COC(=O)c1c(NC(=O)C(C)(C)C)csc1C,19.3
CC1=C(C(=O)N2CCOCC2)C(c2ccccc2F)NC(=O)N1 (centres undefined),3.4
COc1ccccc1CCc1nnc(CCC(=O)N(C)Cc2ccncc2C)o1,-2.9
CCCc1cc(=O)c2ccc(OCC(C)=O)cc2o1,3.5
Cc1cc(C=O)c(C)n1-c1ccc(N2CCOCC2)c([N+](=O)[O-])c1,6.3
Cc1ccc(S(=O)(=O)N2CCCCC2)cc1NC(=O)Cc1c[nH]c2ccccc12,16.1
C/C(Cc1ccccc1)=N\NC(=O)CNC(=O)c1ccccc1Cl,6.0
COc1ccc(CCn2c(C)cc(C(=O)CCl)c2C)cc1OC,2.2
COC(=O)[C@@H]1C(c2c(OC)cc(OC)cc2OC)=NO[C@H]1C(=O)OC,-12.1
COc1ccc(-c2nc3c4c(ncn3n2)-c2ccccc2CC42CCCC2)cc1,6.8
O=[N+]([O-])c1cccnc1NCCc1ccccc1,11.3
Nc1c(C(=O)NCCc2ccccc2)sc2nc(N3CCOCC3)c3c(c12)CCCC3,-0.5
CCN1C(=O)CC(NNC(=O)c2ccccc2)C1=O (centres undefined),17.9
CCn1cc(C=O)c2cc(S(=O)(=O)N3CCOCC3)ccc21,15.1
O=C(NC1CC1)C1=C[C@H](c2c[nH]c3ccccc23)C[C@H](OCc2ccc(CO)cc2)O1,16.6
Cc1nnc2sc(SCc3cccc(Cl)c3)nn2c1=O,11.6
CCCCn1c(=O)[nH]c(=O)c2c1nc(-c1ccc(C(F)(F)F)cc1)n2C,6.5
Cc1ccc2cc(C)c3nnc(SCC(=O)c4cccs4)n3c2c1C,15.9
Cc1ccc(COc2ccc(C)nc2[N+](=O)[O-])cc1,15.2
COC(=O)[C@H](Cc1ccccc1)NC(=O)O[C@@H]1C(=O)c2cc(Br)ccc2O[C@H]1c1cccc(OC)c1,8.5

# 2 entries from above, bar-delimited.
molecule | Calb biofilm kill
Cc1ccc(COc2ccc(C)nc2[N+](=O)[O-])cc1 | 15.2
COC(=O)[C@H](Cc1ccccc1)NC(=O)O[C@@H]1C(=O)c2cc(Br)ccc2O[C@H]1c1cccc(OC)c1 | 8.5

# Later entries:
SMILES,Calb biofilm kill
COc1ccc(NS(=O)(=O)c2ccc(C)c(NC(=O)c3ccc(C)c(S(=O)(=O)N4CCOCC4)c3)c2)cc1,9.1
NC(=O)CSc1nnc(-c2ccc(S(=O)(=O)N3CCCC3)cc2)o1,7.1
CCOC(=O)c1c(-c2ccc(C)o2)csc1NC(=S)NC(=O)c1cccs1,-4.5
Cc1nn(-c2ccccc2)c(N2CCCC2)c1/C=C1\N=C(c2ccc(OC(C)C)cc2)OC1=O,11.5
Cc1ccc(S(=O)(=O)CCc2nnc(N)s2)cc1C,12.5
FC(F)(F)c1ccc(-n2cn[nH]c2=S)cc1,4.6
O=C(c1ccc2c(Cl)c3c(nc2c1)CCCC3)N1CCC(N2CCCCC2)CC1,9.3
O=C(O)CCSc1ccc([N+](=O)[O-])cc1[N+](=O)[O-],8.8
CC1CC(=O)C2=C(C1)Nc1ccccc1SC2c1ccc(F)cc1 (centres undefined),13.3
Cc1cccc(-c2cc(=O)c(C(=O)O)cn2-c2ccc(F)cc2F)c1,19.9
CC(=O)Nc1nc2c(C)c(Cl)ccc2s1,22.3
Cc1cccc2nc(Cn3c(=O)n(CCCC(=O)NCc4ccco4)c(=O)c4ccccc43)cc(=O)n12,8.2
O=C(Cc1ccc(-n2c(=O)c3ccccc3n(Cc3ccccc3Cl)c2=O)cc1)NCC1CCCO1 (centres undefined),15.6
CCOc1ccc(NC(=O)C2(c3ccc(OC)c(OC)c3)CCCC2)cc1,18.5
Cc1cc(-c2nnc3n2N=C(c2ccccc2Br)CS3)n[nH]1,4.0
CCN(CC(=O)Nc1ccccc1-c1ccccc1)Cc1nc2ccccc2c(=O)[nH]1,7.2
CC1CCc2sc(C(=O)NN=C3CCC(c4ccccc4)CC3)cc2C1 (centres undefined),4.2
CC(NC(=O)/C(=C/c1ccc(OC(F)F)cc1)c1ccccc1)c1ccccc1 (centres undefined),10.7
C/C(=N\Nc1cccc(C(=O)O)c1)c1ccc2c(c1)Nc1ccccc1S2,17.6
N#Cc1cc2c([nH]c1=S)CCCC2,5.3
N#C/C(=C\c1ccccc1O)C(=O)Nc1cccnc1,21.4
COc1ccc(-c2csc(NC(=O)c3ccc(OCC(=O)N4CCOCC4)c(OC)c3)n2)cc1,11.7
C=CCNc1oc(-c2cccs2)nc1S(=O)(=O)c1ccccc1,-14.7
CCCCCCC(=O)N1C/C=C\C(c2ccc(OC)cc2)N(Cc2ccc(F)cc2)C(=O)C1 (centres undefined),10.5
CCC(=O)Nc1cccc(NC(=S)NC(=O)c2ccccc2)c1,14.8
Cn1c(=O)c2c(nc(N3CCN(c4ccc([N+](=O)[O-])cc4)CC3)n2C)n(C)c1=O,8.8
O=[N+]([O-])c1ccc(N2CCN(S(=O)(=O)c3ccccc3)CC2)cc1N1CCc2ccccc2C1,16.5
O=C(Cc1ccc([N+](=O)[O-])cc1)Nc1ccc2c(c1)C(=O)NC2=O,23.5
CCc1nc(N=C(N)N)nc2ccccc12,4.4
CCOc1cc(/C=N/NC(=O)CCc2n[nH]c(=O)[nH]c2=O)ccc1O,21.4
COc1ccc(OCC(O)CNC(=O)Nc2ccc(Cl)cc2)cc1 (centres undefined),18.2
O=C(c1cc([N+](=O)[O-])ccc1N1CCN(S(=O)(=O)c2ccc(Cl)c(Cl)c2)CC1)N1CCOCC1,9.1
COc1ccc(C2C(C#N)=C(N)Oc3c2c(-c2ccccc2)nn3-c2ccccc2)c(OC)c1OC (centres undefined),8.3
CN(C)c1ccc(C(CNC(=O)c2ccccc2F)c2c[nH]c3ccccc23)cc1 (centres undefined),4.2
O=C(CCSc1nc(-c2ccco2)cc(C(F)(F)F)n1)NCc1cccs1,18.4
O=c1oc(-c2ccco2)nc2sc3c(c12)CCCC3,11.7
O=C(Cn1ccc2ccccc21)Nc1ccc2c(c1)OCO2,7.8
O=C(Nc1cccnc1)c1cccc(S(=O)(=O)N2CCCCC2)c1,19.6
Cc1ccc(S(=O)(=O)NNC(=O)c2cnn(-c3ccc(Cl)cc3)c2C(F)(F)F)cc1,15.1
COc1ccc(-c2csc(NC(=O)/C(N=Nc3ccccc3)=C(\C)O)n2)cc1,16.4
CC1CC2(C)Oc3ccccc3CC2C(C)C1CNCCCN(C)C (centres undefined),5.3
CCN1CCN(CCCN(Cc2ccco2)C(=S)Nc2ccccc2Cl)CC1,12.0
COc1ccc(/C=N/Nc2ccc(C(=O)O)cc2)cc1OC,30.6
O=C(CSc1nc(-c2ccccc2)c(-c2ccccc2)[nH]1)NCC1CCCO1 (centres undefined),7.7
CC(C)N1CCC(N2CCN(Cc3cccnc3)CC2CCO)CC1 (centres undefined),19.5
COc1ccc2[nH]cc(C(=O)CCl)c2c1,18.5
NC(=O)C(=O)NN=C1CCC(c2ccccc2)CC1 (centres undefined),18.2
S=C(NCCCN1CCOCC1)Nc1cccc(-c2nnc3n2CCCCC3)c1,16.5
CC(=O)NC(=S)Nc1ccc(NC(=S)NC(=O)/C=C/c2ccco2)cc1,31.8
CN(C)/C=N/c1cc(=O)[nH]c(=O)n1Cc1ccccc1,4.8

# More results follow.
SMILES,Calb biofilm kill
COCCNC(=O)c1cc2nc(-c3ccc(F)cc3)cc(C(F)(F)F)n2n1,0.2
COc1ccc(S(=O)(=O)N2CCCC2)c(Cl)c1Cl,20.0
CC(=O)Nc1nc(C)c(Oc2ccc(Cl)cc2)c(=O)[nH]1,23.8
COc1cc(/C=C/C(=O)Nc2nnc(CC(C)C)s2)cc(OC)c1OC,7.4
CCOC(=O)c1sc(-c2ccc(Cl)cc2)nc1O,15.1
Cc1cc(C)c(NC(=O)C2CCN(c3cnccn3)CC2)c(C)c1,6.9
Cc1cc(OCc2ccc(C(=O)NN=C3CCCC3)cc2)ccc1Cl,6.9
CCOC(=O)c1cc[n+](CC(=O)c2ccc(F)cc2)cc1,16.0
Cc1ccc(Cl)cc1NC(=O)C1CCN(S(C)(=O)=O)CC1,-19.3
Cc1cc2oc(C(=O)NCCc3ccc(S(N)(=O)=O)cc3)c(C)c2cc1C,6.6
COC(=O)c1ccc(SCC(=O)N2CCC(C)CC2)c([N+](=O)[O-])c1,12.4
CC(C)C(NC(=O)c1ccccc1)C(=O)N/N=C\c1ccco1 (centres undefined),2.4
O=C(CSc1n[nH]c(-c2ccccc2O)n1)N1CCOCC1,0.2
O=C(/C=C/c1ccccc1)OCCCCN=C1NS(=O)(=O)c2ccccc21,8.4
O=[N+]([O-])c1ccccc1NCCNS(=O)(=O)c1ccc(Cl)cc1,15.4
CCOC(=O)c1c(CSc2ccccc2)n(C)c2cc(Br)c(O)c(CN(C)C)c12,19.8
O=S1(=O)c2ccccc2C(CCO)N1Cc1ccccc1 (centres undefined),12.6
COc1cc(C=C2C(=O)OC(C)(C)OC2=O)cc(Cl)c1OCC(=O)Nc1ccccc1,9.1
Nn1c(SCc2ccccc2F)nnc1-c1cccnc1,22.1
CCCCC[C@H](O)/C=C/[C@H]1C=CC(=O)[C@@H]1C/C=C\CCCC(=O)O,-5.5
CC(=O)c1ccc(N(C(=O)CS(=O)CC(=O)Nc2ccc(F)cc2)C(C(=O)NC2CCCCC2)c2cccs2)cc1 (centres undefined),18.4
COc1ccc(CCN2C(=O)CSC2c2ccc(OC)c(OC)c2)cc1OC (centres undefined),15.7
CCn1c(SCC(=O)Nc2ccc3c(c2)OCCO3)nnc1-c1c[nH]c2ccccc12,16.3
O=C(CSc1ccccc1)NN1C(=O)c2ccccc2C1=O,17.6
COc1cc(/C=N/NC(=O)C2=NNC(=O)C2C)ccc1O (centres undefined),11.6
O=C(Nc1ccccc1C(=O)NC(Cc1ccccc1)C(=O)NC1CCCCC1)c1ccccc1 (centres undefined),19.9
COC(=O)/C(=C/c1ccco1)NC(=O)c1ccccc1,4.8
COc1cccc(NC(=O)Cc2nc(-c3ccccc3)sc2-c2ccc(C)cc2)c1,1.5
Cc1ccc(OCCCCn2c(CO)nc3ccccc32)cc1,16.0
O=C(Nc1cccc(Cl)c1)Nc1nc(-c2ccccc2)cs1,2.1
Cc1ccccc1-n1nc(-c2cccnc2)cc1C(=O)N/N=C/c1ccncc1,15.8
Cc1ccc2sc(NNC(=O)C3=COCCO3)nc2c1C,14.4
CC(C)Nc1nc(NC(C)C)nc(Oc2ccc(=O)n(C)n2)n1,-10.2
C=CCNc1nc(Cl)nc(Nc2ccc([N+](=O)[O-])cc2)n1,16.4
CC(C)NC(=S)N(CCc1ccncc1)C(C)C,13.7
CCOCC(=O)Nc1cc(C(=O)Nc2cc(C)cc(C)c2)ccc1Cl,4.7
CCCCC1C2=C(CC(C)(C)CC2=O)OC2=C1C(=O)CC(C)(C)C2,11.3
Cc1[nH]c2ccccc2c1CCN(Cc1cccs1)C(=S)NC(C)(C)C,14.2
O=C(COC(=O)/C=C/c1nc2ccccc2s1)Nc1cccc2ccccc12,7.2
Cc1cccc(-n2c(SCC(=O)O)nc3sc4c(c3c2=O)CCCC4)c1,21.5
O=c1nc(Nc2cccc(Cl)c2)oc2cc(Cl)oc(=O)c12,16.5
CC1CC(=O)NN1C(=O)c1ccccc1 (centres undefined),-1.4
O=C(c1ccc(CN2CCOCC2)cc1)N1CCN(c2ccccc2)CC1,12.5
Cc1ccc(S(=O)(=O)N(C)C)cc1NC(=O)COC(=O)c1c(C)noc1C,17.7
COCCCNC(=S)N1CCN(S(C)(=O)=O)CC1,10.7
CCN(C(=O)Cn1cnc2cc([N+](=O)[O-])ccc2c1=O)C1CCS(=O)(=O)C1 (centres undefined),2.3
O=C(O)/C(=C\c1cn(-c2ccccc2)nc1-c1ccc(Cl)cc1)NC(=O)c1ccccc1,21.8

# Molecules listed so far with two or more sulfur atoms (13):
SMILES,Calb biofilm kill
Cc1nnc2sc(SCc3cccc(Cl)c3)nn2c1=O,11.6
Cc1ccc2cc(C)c3nnc(SCC(=O)c4cccs4)n3c2c1C,15.9
COc1ccc(NS(=O)(=O)c2ccc(C)c(NC(=O)c3ccc(C)c(S(=O)(=O)N4CCOCC4)c3)c2)cc1,9.1
NC(=O)CSc1nnc(-c2ccc(S(=O)(=O)N3CCCC3)cc2)o1,7.1
CCOC(=O)c1c(-c2ccc(C)o2)csc1NC(=S)NC(=O)c1cccs1,-4.5
Cc1ccc(S(=O)(=O)CCc2nnc(N)s2)cc1C,12.5
C=CCNc1oc(-c2cccs2)nc1S(=O)(=O)c1ccccc1,-14.7
O=C(CCSc1nc(-c2ccco2)cc(C(F)(F)F)n1)NCc1cccs1,18.4
CC(=O)NC(=S)Nc1ccc(NC(=S)NC(=O)/C=C/c2ccco2)cc1,31.8
CC(=O)c1ccc(N(C(=O)CS(=O)CC(=O)Nc2ccc(F)cc2)C(C(=O)NC2CCCCC2)c2cccs2)cc1 (centres undefined),18.4
Cc1[nH]c2ccccc2c1CCN(Cc1cccs1)C(=S)NC(C)(C)C,14.2
Cc1cccc(-n2c(SCC(=O)O)nc3sc4c(c3c2=O)CCCC4)c1,21.5
COCCCNC(=S)N1CCN(S(C)(=O)=O)CC1,10.7
